KCNQ2 enhance: potentiators of rat KCNQ2 potassium channel; Potassium voltage-gated channel subfamily KQT member 2 (Rattus norvegicus), O88943; B-score at 10 µM; CHO-K1 KCNQ2, FluxOR thallium flux fluorescence; hits give high values; 0.54% of 310,000 active;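 active = fluorescence ratio B-score at least 3 SD of library B-scores, with initial fluorescence B-score within 3 SD, cut at about 5.3 in these data; same plate scores as AID 2156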;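 note: B-score of peak minus minimum over baseline fluorescence ratio after K+ and Tl+ stimulus; positive B-score means potentiation of KCNQ2 with more thallium influx and brighter signal; only the inactives scoring about 0 or higher are listed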
Target sequence (O88943 whole entry, looked up): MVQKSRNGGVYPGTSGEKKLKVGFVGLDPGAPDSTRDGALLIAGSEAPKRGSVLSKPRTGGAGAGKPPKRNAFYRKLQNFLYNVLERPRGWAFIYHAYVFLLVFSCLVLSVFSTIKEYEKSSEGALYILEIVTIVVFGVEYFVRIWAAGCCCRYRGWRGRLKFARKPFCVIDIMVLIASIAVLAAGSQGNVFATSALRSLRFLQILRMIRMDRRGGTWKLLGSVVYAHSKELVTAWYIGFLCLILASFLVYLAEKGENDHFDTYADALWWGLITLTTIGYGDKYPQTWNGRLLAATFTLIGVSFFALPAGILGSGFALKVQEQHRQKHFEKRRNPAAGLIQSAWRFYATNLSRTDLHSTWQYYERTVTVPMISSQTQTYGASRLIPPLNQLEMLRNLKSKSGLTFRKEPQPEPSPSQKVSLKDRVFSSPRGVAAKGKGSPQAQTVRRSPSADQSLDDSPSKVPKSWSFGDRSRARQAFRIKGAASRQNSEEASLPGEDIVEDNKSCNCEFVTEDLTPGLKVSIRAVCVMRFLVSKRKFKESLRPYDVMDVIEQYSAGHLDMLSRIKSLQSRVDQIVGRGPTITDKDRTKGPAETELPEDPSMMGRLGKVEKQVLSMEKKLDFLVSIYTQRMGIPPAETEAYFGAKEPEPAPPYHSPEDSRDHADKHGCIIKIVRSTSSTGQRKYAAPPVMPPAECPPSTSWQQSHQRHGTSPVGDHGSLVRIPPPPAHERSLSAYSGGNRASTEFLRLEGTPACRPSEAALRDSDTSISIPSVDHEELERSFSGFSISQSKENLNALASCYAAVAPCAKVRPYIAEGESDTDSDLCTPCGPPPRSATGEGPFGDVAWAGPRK
KCNQ2 enhance baseline: further read-out of KCNQ2 enhance, marked with its call; B-score; compound at 10 µM; measured here: initial fluorescence intensity artifact check;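 brightness before thallium and not channel activity; 0 = typical well and far values either way flag optical interference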
The depositor's hits bear a star.

Value order – KCNQ2 enhance, KCNQ2 enhance baseline
- CC(C)(C)c1ccc(C(=O)NNC(=O)c2ccc(Cl)cc2)cc1
→ 0.5, 1.8
- O=C(CCCC(=O)NCc1ccc(F)cc1)NCc1ccc(F)cc1
→ 0.76, 0.03
- Cc1cc(=O)n(C)c(=O)n1CC(=O)N1CCCCCC1
→ 0.65, -0.1
- CCCCOc1ccc(NC(=O)C2OC3OC(C)(C)OC3C3OC(C)(C)OC23)cc1 (configuration not stated)
→ 0.04, -2.9
- COCCCNC(=S)NCCCNc1nc2cc3c(cc2cc1C#N)OCO3
→ 1.4, 0.12
- CCCCCC(=O)NC(=S)Nc1cccc(C(C)=O)c1
→ 1.1, 0.64
- CCCCN=C1NC(=O)C(CC(=O)NCCc2ccc(OC)cc2)S1 (configuration not stated)
→ 0.02, 0.17
- Cc1ccc(C(=O)CSc2nnc(-c3cccnc3)n2N)cc1
→ 0.53, 0.06
- Cc1cc([N+](=O)[O-])nn1CC(=O)N/N=C/c1ccccc1F
→ 0.14, 0.01
- COC(=O)c1ccccc1S(=O)(=O)N(Cc1cc2cc3c(cc2[nH]c1=O)OCO3)C1CCCCC1
→ 0.06, 1.9
- Cc1[nH]c2ccccc2c1CC(=O)O
→ 0.23, -0.04
- CCc1ccc(/C=C(/C#N)C(N)=S)s1
→ 1.1, -0.2
- CC1CN(c2nc3ccccn3c(=O)c2C=O)CC(C)O1 (configuration not stated)
→ 0.08, -0.2
- COc1cccc(Cn2cnc3c(NS(=O)(=O)c4cc(Cl)ccc4Cl)c(C)c(C)cc32)c1
→ 0.09, 0.37
- O=C(Cn1cnc2nc3n(c2c1=O)CCC3)NCc1ccccc1
→ 0.09, 0.39
- COc1cccc2c1OC1(C)CC2NC(=O)N1 (configuration not stated)
→ 0.72, -0.83
- CCOC(=O)Cc1csc(NC(=O)COc2ccccc2OCC)n1
→ 0.31, 0.01
- CN1CCN(S(=O)(=O)c2ccc(N(C)Cc3cccs3)nc2)CC1
→ 1.4, 0.01
- Cc1cc2cccc(C)c2nc1SCC(=O)NC1CCCCC1
→ 13*, 0.69*
- O=C1C2CCCN2C(=O)N1CCN1CCN(CCO)CC1 (configuration not stated)
→ 0.41, -0.61
- CCCCCCCCC(=O)NC(NC(=S)N1CCOCC1)C(Cl)(Cl)Cl (configuration not stated)
→ 1.6, -0.27
- Nc1c(-c2ccc(Cl)cc2)cnc2ncnn12
→ 0.04, 0.71
- Cc1cc(C)c2c(N)c(C(=O)N/N=C/c3ccccc3)sc2n1
→ 1, 0.04
- COC(=O)c1ccc(CSc2ccc3nnc(-c4cccc(F)c4)n3n2)o1
→ 0.85, 0.72
- CC(NC(=O)c1ccc(CS(=O)(=O)Cc2ccccc2F)o1)c1ccc2c(c1)OCCO2 (configuration not stated)
→ 0.01, 1.9
- CCN(CC)S(=O)(=O)c1cccc(C(=O)NCCCN2CCOCC2)c1
→ 0.21, -0.09
- CC(=O)Nc1nn(C)c2nc3ccc(C)cc3cc12
→ 0.16, -0.94
- CCc1nnc(NC(=O)c2nc(S(=O)(=O)Cc3ccc(C)cc3)ncc2Cl)s1
→ 15*, 0*
- COc1ccccc1NS(=O)(=O)c1cc(NC(=O)c2ccco2)ccc1N1CCOCC1
→ 0.02, -0.68
- COc1ccc(OC)c(/C=N/NC(=O)c2[nH]nc3c2CCc2ccccc2-3)c1
→ 0.47, -0.12
- CN1CCC(Oc2ccccc2Sc2ccccc2)CC1
→ 0.38, -0.64
- CN(C(=O)CSc1ncccn1)C1CCS(=O)(=O)C1 (configuration not stated)
→ 0.56, 0.6
- CCOc1ccccc1NC(=O)Cn1c(=O)c2ccccc2n(CC)c1=O
→ 0.58, -1.1
- COc1cc(NC(=O)CCCn2c(=S)[nH]c3ccccc3c2=O)cc(OC)c1OC
→ 0.36, 0.75
- CC(OC(=O)c1ccc(Cl)nc1)C(=O)Nc1ccc(S(=O)(=O)N2CCCC2)cc1 (configuration not stated)
→ 0.01, -0.8
- C=CCN1C(=O)/C(=c2\sc3nc(=O)c(Cc4ccccc4)nn3c2=O)c2ccccc21
→ 2, 0.08
- Cc1c(Cl)c([N+](=O)[O-])nn1CCCC(=O)O
→ 0.2, 0.04
- O=C(/C=C/c1ccc(Cl)cc1)NCCSc1ccccc1
→ 0.43, 0.13
- Cc1ccc2nc(SCC(=O)c3ccc(O)cc3O)[nH]c2c1
→ 1.4, -1.2
- Cc1ccc(O)c(-n2nc3ccccc3n2)c1
→ 0.15, 0.13

Compounds from the list above with fluorine (four):
Value order – KCNQ2 enhance, KCNQ2 enhance baseline
- O=C(CCCC(=O)NCc1ccc(F)cc1)NCc1ccc(F)cc1
→ 0.76, 0.03
- Cc1cc([N+](=O)[O-])nn1CC(=O)N/N=C/c1ccccc1F
→ 0.14, 0.01
- COC(=O)c1ccc(CSc2ccc3nnc(-c4cccc(F)c4)n3n2)o1
→ 0.85, 0.72
- CC(NC(=O)c1ccc(CS(=O)(=O)Cc2ccccc2F)o1)c1ccc2c(c1)OCCO2 (configuration not stated)
→ 0.01, 1.9

Following part:
Value order – KCNQ2 enhance, KCNQ2 enhance baseline
- O=C(COc1cccc2c1CCN(Cc1ccc(Br)cc1)C2=O)N1CCOCC1
→ 1.4, -0.5
- Fc1ccc(-c2cc(C(F)(F)F)n3ncnc3n2)cc1
→ 0.34, -0.62
- Cc1nc(N2CCOCC2)c(C#N)c2c1COC(C)(C)C2
→ 0.01, 0.26
- CN1CCC(OC(=O)COc2ccc(Br)cc2)CC1
→ 0.44, 3.3
- Cc1c(NC(=O)CSCc2ccco2)c(=O)n(-c2ccccc2)n1C
→ 0.41, 1.4
- CCn1c(C)nc2cc(S(=O)(=O)N3CCCCC3)ccc21
→ 0.07, -0.1
- O=C(c1ccc([N+](=O)[O-])s1)N1CCN(c2ccccc2)CC1
→ 0.75, 0.52
- O=C(/C=C/c1ccc(Cl)cc1)NCc1ccncc1
→ 0.4, 0.76
- CCOC(=O)c1[nH]c2ccc(OC)cc2c1NC(=O)CCN1CCSCC1
→ 2.1, -0.05
- COc1ccc(NC(=O)CN(C)S(=O)(=O)c2ccc3c(c2)CC(C)N3C(C)=O)c(OC)c1 (configuration not stated)
→ 2.5, 0.07
- Cc1cc(SCC(=O)N2CCCC2=O)nc2c(C)cccc12
→ 0.47, 0.25
- O=C(O)CCC(=O)Nc1cccc2cccnc12
→ 1.5, -0.44
- CC(C)NC(=O)NC(=O)COC(=O)c1ccc(NC(=O)CC#N)cc1
→ 1.7, -1.1
- Cc1ccc(S(=O)(=O)N2CCC(C(=O)NCc3cccnc3)CC2)cc1
→ 1.3, 0.72
- Cc1ccc(-c2nc(NCCN(C)C)c3ccccc3n2)cc1
→ 2.1, -2.2
- Cc1ccc(NC(=O)CSCC(=O)Nc2ccccc2C(=O)N2CCCCC2)cc1
→ 0.38, -0.48
- O=C(NCc1ccc2c(c1)OCO2)c1ccc(NS(=O)(=O)c2ccc3c(c2)OCCO3)cc1
→ 0.44, 0.47
- Cc1noc(C(F)(F)F)c1C(=O)NNC(=O)c1cccc(C(F)(F)F)c1
→ 0.25, -1.4
- CCOC(=O)C[C@H]1c2cc(F)ccc2S(=O)(=O)N1c1cccc(OC)c1
→ 0.15, -1.6
- CSc1ccc(/C=N/NC(=O)c2cccs2)cc1
→ 14*, 0.33*
- COc1ccccc1CN1CCCC(N2CCN(c3ccccc3OC)CC2)C1 (configuration not stated)
→ 1.6, -1.2
- COc1ccc(NC(=S)N(CCN(C)C)C(C)c2ccncc2)cc1Cl (configuration not stated)
→ 2.3, -2.1
- O=C(CSc1nnc(COc2ccc(Br)cc2)o1)N1CCOCC1
→ 1.1, -1.2
- COc1ccccc1NC(=O)N(c1c(N)n(Cc2ccccc2)c(=O)[nH]c1=O)C1CCCC1
→ 0.55, -1
- CCOC(=O)c1ccc2c(c1)N(CC#N)C(=O)C(C)(C)O2
→ 0.38, 0.56
- CC1Nc2ncnc(N3CCOCC3)c2N(Cc2ccccc2)C1=O (configuration not stated)
→ 1, -2.1
- Cc1cc(C)c(C)c(S(=O)(=O)Nc2ccccc2C(=O)O)c1C
→ 0.22, 0.92
- CN(CC(=O)Nc1ccc(Cl)c(C(F)(F)F)c1)C(=O)Cc1n[nH]c(=O)c2ccccc12
→ 0.34, 0.92
- OCCC1CN(Cc2cccn2-c2ccccn2)CCN1Cc1ccccc1 (configuration not stated)
→ 0.21, 1.2
- CC1CCCN(C(=O)COC(=O)c2n[nH]c3ccccc23)C1 (configuration not stated)
→ 0.01, -1.2
- Cc1cc(C(F)F)n2ncc(C(=O)N3CCCCC3)c2n1
→ 1.4, 1.1
- O=C(NCc1cccc(C(F)(F)F)c1)c1ccc(=O)[nH]c1
→ 1.2, 0.24
- Cc1c(NC(=O)C(C)OC(=O)c2cc(Cl)nc(Cl)c2)c(=O)n(-c2ccccc2)n1C (configuration not stated)
→ 0.3, 0.01
- Cc1csc(NC(=O)c2nc3nccc(C)n3n2)n1
→ 0.36, -0.11
- COc1cccc(CN2CCNC(=O)C2CC(=O)NCc2cc(C(C)C)no2)c1 (configuration not stated)
→ 0.1, 2.6
- COCCNC(=S)NNC(=O)c1cc(-c2cccnc2)nc2ccccc12
→ 1, 0.04
- CC1CCN(c2c([N+](=O)[O-])c(=O)n(-c3ccccc3)c3ccccc23)CC1
→ 0.22, -2.6
- Cn1c(CCC(=O)OCC(=O)NCC(F)(F)F)nc(=O)c2ccccc21
→ 0.03, -0.01
- O=C(CCC(=O)OCC(=O)c1ccc([N+](=O)[O-])cc1)NC1CCCCC1
→ 0.38, -0.64
- CN(C)c1ccc(C(C(=O)NC2CCCC2)N(Cc2cccnc2)C(=O)c2snc(C(N)=O)c2N)cc1 (configuration not stated)
→ 0.78, -2
- CC(Oc1ccccc1)C(=O)N=C1SC2CS(=O)(=O)CC2N1Cc1ccccc1 (configuration not stated)
→ 0.5, 1.6
- CCC(C)n1c(SCC(=O)Nc2cc(C)on2)nc2ccccc2c1=O (configuration not stated)
→ 1.1, -0.07
- COC(=O)c1sccc1S(=O)(=O)Nc1ccc(N2CCCCC2)cc1
→ 0.2, 1.9
- O=C(NCC1COCCO1)c1ccc2nc(Cc3cccc(Cl)c3)oc2c1 (configuration not stated)
→ 0.06, 0.18
- COc1ccc(NC(=O)c2cc(-c3cccc(OC)c3)on2)cc1
→ 1.6, -0.08
- Cc1ccc2[nH]c(=O)c(CN(CC3CCCO3)S(=O)(=O)c3c(C)ccc4nsnc34)cc2c1 (configuration not stated)
→ 0.58, -2
- CCOC(=O)N1CCC(NC(=O)C2=CCN(S(=O)(=O)c3ccccc3)CC2)CC1
→ 0.17, 0.03
- CC(=O)c1ccc(OCC(O)COc2ccc(C(C)=O)cc2)cc1
→ 0.44, -1.4
- Cc1ccc(NC(=O)NCC2CCN(Cc3cccc(Cl)c3)CC2)c(Cl)c1
→ 6.5*, 0.6*
- COc1ccc(-c2cn3c(C)c(C(=O)Nc4ccncc4)sc3n2)cc1
→ 0.85, 1.6

Next section
Value order – KCNQ2 enhance, KCNQ2 enhance baseline
- CN(CC(=O)NNC(=O)CNC(=O)c1cccs1)S(=O)(=O)c1ccc(Cl)cc1
→ 0.11, 1.2
- O=S(=O)(NCCOc1cccc2cccnc12)c1ccc(F)cc1
→ 1.6, 0.13
- Cn1nccc1C(=O)Oc1cccc(/C=N/NC(=O)c2ccccc2O)c1
→ 0.6, 0.17
- CN1CCN(CC#Cc2ccccc2)CC1CCO (configuration not stated)
→ 1.2, 0.24
- CSCC[C@H](NC(=O)Cc1c(C)c2cc3c4c(oc3cc2oc1=O)CCCC4)C(=O)O
→ 0.62, 3
- CCn1c(=O)c(C(=O)Nn2c(C)nc3ccccc3c2=O)c(O)c2ccccc21
→ 0.35, -0.09
- O=C(NCCN1C(=O)S/C(=C\c2ccccc2)C1=O)C1CCN(S(=O)(=O)c2cccs2)CC1
→ 1.6, -0.59
- CCOC(=O)c1c(C)[nH]c(C(=O)CN2C(=O)NC(C)(c3ccc(C)cc3)C2=O)c1C (configuration not stated)
→ 0.68, 0.25
- Cc1cccn2c(=O)nc(SCC(=O)NCCc3ccccc3)nc12
→ 0.44, -0.4
- CC1C(=O)CCC1(C(=O)O)c1ccccc1 (configuration not stated)
→ 0.74, -0.38

Profiles, looked up by structure. Values in the order: KCNQ2 enhance, KCNQ2 enhance baseline
CN(CC(=O)NNC(=O)CNC(=O)c1cccs1)S(=O)(=O)c1ccc(Cl)cc1 in the list: 0.11, 1.2
CN1CCN(CC#Cc2ccccc2)CC1CCO (configuration not stated) in the list: 1.2, 0.24
CSCC[C@H](NC(=O)Cc1c(C)c2cc3c4c(oc3cc2oc1=O)CCCC4)C(=O)O in the list: 0.62, 3
O=C(NCCN1C(=O)S/C(=C\c2ccccc2)C1=O)C1CCN(S(=O)(=O)c2cccs2)CC1 in the list: 1.6, -0.59

Next part.
Value order – KCNQ2 enhance, KCNQ2 enhance baseline
- CCNC(=O)CC1C(=O)N(c2ccc(OC)cc2)C(=O)N1CCOC (configuration not stated)
→ 0.14, -0.89
- Cc1ccc(CS(=O)(=O)c2ncc(Cl)c(C(=O)Nc3ccc(OC(F)F)cc3)n2)cc1
→ 0.85, -0.08
- COc1ccc(OC2OC3COC(C)(C)OC3C(O)C2NC(C)=O)cc1 (configuration not stated)
→ 1.8, -0.48
- CN(C)CC(c1ccccc1)c1ccccc1
→ 0.28, 1.2
- CCOc1cc(C(N)=O)cc(Br)c1OCc1ccccc1
→ 0.06, 1.5
- CCCCSc1nnc(CCC)n1N
→ 0.73, 0.01
- Cc1oc(/N=C/c2ccc(F)cc2)c(C#N)c1C
→ 0.72, -0.01
- O=C1C=C(NCCN2CCOCC2)CC(c2ccccc2)C1 (configuration not stated)
→ 0.91, -0.9

Screening results deposited in PubChem BioAssay by Johns Hopkins Ion Channel Center.

Not all compounds are listed; rates above refer to the full screens.
